High-throughput results deposited in PubChem BioAssay by several laboratories.
INS promoter inh: TRM-6 insulin promoter activity inhibition. TRM-6 cells (human fetal islet line), insulin promoter-eGFP reporter, imaging; reporter expression induced with tamoxifen. inhibition, % at 2 µM. 130,000 compounds, 0.9% hits. AID 1273;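 active = inhibition above the mean plus 3 SD, with well images judged a real hit on visual review, cut at about 60% in these data, passing the limit was not always enough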
GALR2 ag: GALR2 (human) receptor agonism; GALR2-expressing cells, agonist activation read-out; 140,000 compounds, 0.48% hits; O43603; activation, %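 (tested at 5 µM)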;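 active = above mean plus 3 SD of all compounds, about 5% in these data, not always enough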;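 note: 0% = vehicle buffer wells and 100% = reference agonist at full effect; tested in CHO reporter cells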
Target sequence (O43603 whole entry, looked up): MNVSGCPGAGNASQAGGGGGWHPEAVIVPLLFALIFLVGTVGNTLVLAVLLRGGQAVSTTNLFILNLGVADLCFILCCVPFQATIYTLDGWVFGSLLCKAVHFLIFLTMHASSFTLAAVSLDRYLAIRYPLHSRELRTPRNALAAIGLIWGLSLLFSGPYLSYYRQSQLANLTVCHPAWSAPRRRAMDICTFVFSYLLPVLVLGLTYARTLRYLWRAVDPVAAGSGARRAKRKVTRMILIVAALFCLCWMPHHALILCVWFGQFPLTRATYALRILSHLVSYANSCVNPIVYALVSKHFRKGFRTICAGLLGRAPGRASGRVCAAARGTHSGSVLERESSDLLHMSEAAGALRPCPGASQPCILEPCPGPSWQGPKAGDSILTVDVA
HSV replic up: increases HSV replication in cells; HSV replication augmentation in cells, fold increase; maximum fold increase; 220,000 compounds, 0.005% hits;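 active = peak rise of 1.5-fold or more in the series; tested in PC3 cells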;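 note: first round at 10 µM; read as green reporter fluorescence; hits show the peak of a series up to 25 µM; 1 = signal of infected wells without compound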
PKD1 kinase inh: PKD1 (human) kinase inhibition | inhibition, %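 (about 10 µM by stock and volumes)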 | AID 797 | Q15139 | 200,000 compounds, 0.056% hits | PKD1 kinase fluorescence polarization assay;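 active = inhibition of 50% or more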;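 note: controls were vehicle for no effect and a reference inhibitor for full effect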
RGS16-Gao HTS: RGS16-Galphao interaction regulator (human); O15492+P09471; bead-based flow cytometry RGS16-Galphao binding, fluorescence; actives lie on both sides; binding response (% of control), % at 10 µM; 220,000 compounds, 0.38% hits;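 active = below 25% or above 175%, edge rows of some plates excepted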;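 note: Galphao activated by GDP with aluminum fluoride before binding; 100% = wells without compound and 0% = beads without RGS; some results beyond the cut were filed as inactive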
Target sequence (O15492 whole entry, looked up): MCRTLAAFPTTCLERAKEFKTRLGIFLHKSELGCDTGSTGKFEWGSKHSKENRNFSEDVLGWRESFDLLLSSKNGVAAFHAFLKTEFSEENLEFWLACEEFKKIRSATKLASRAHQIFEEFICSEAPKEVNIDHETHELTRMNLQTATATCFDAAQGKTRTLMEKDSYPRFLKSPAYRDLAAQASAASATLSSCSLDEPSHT
Target sequence (P09471 whole entry, looked up): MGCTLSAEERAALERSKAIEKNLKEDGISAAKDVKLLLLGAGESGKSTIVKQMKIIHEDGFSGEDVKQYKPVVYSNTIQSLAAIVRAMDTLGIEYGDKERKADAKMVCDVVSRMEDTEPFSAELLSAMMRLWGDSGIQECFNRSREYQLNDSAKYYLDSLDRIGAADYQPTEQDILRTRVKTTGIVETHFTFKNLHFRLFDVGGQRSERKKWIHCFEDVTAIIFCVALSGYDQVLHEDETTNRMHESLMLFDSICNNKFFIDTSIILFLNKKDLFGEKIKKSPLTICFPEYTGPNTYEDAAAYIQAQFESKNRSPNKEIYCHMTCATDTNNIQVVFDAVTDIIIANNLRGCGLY
INS promoter inh cell count: recorded beside INS promoter inh, whose call it bears; normalized cell count, %; measured here: cell count, toxicity; reference of the scale not given here;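 cells exposed to compound for 48 h; stained nuclei by imaging scaled within each plate; lower means fewer cells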
HSV replic up primary fold: recorded beside HSV replic up, whose call it bears; fold increase; compound at 10 µM; measured here: primary screen fold increase 10 uM; tested in PC3 cells;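 GFP signal in the first replicate; 1 = infected wells without compound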
* hit, by the source's call; i = inactive; / = no result given.

Second line of a record – INS promoter inh	INS promoter inh cell count	GALR2 ag	HSV replic up	HSV replic up primary fold	PKD1 kinase inh	RGS16-Gao HTS
COc1cc(/C=C2\C(=O)N(c3ccc(NC(C)=O)cc3)N=C2c2ccccc2)ccc1O
 : /	/	/	i	0.8	1.8	103.5
COc1ccccc1NC(=O)NCCCN1CCN(c2cccc(Cl)c2)CC1
 : /	/	-0.1	i	0.96	2.0	103.4
CCOC(=O)CCC(=O)Nc1ccc(S(=O)(=O)N2CCCC2)cc1
 : 31.4	87.5	-1.9	i	0.83	-5.2	97.4
CCc1cccc(C)c1NC(=O)COn1nnc2ccc(C(F)(F)F)cc21
 : -28.6	84.0	-0.8	i	0.91	2.3	97.0
Cc1ccc(C)n1-c1cccc(N)c1
 : -15.2	96.6	-2.4	i	0.93	-2.4	54.1
O=C1CCc2cc(S(=O)(=O)N3CCC(C(=O)NC4CCCCCCC4)CC3)ccc2N1
 : /	/	-1.1	i	0.93	0.3	99.5
CC(=O)Nc1ccc(NC(=O)C(C)OC(=O)C2CCN(S(=O)(=O)c3cccs3)CC2)cc1 (stereo not given)
 : /	/	/	i	1	/	99.6
Nc1ccccc1NC1CCCCC1
 : -17.6	61.7	/	i	0.95	-2.7	112.7
CCN(CC)C(=O)C1CCCN(Cc2sccc2C)C1 (stereo not given)
 : -6.2	174.4	-1.1	i	1.04	9.8	105.2
O=C(CN1C(=O)c2ccccc2S1(=O)=O)c1ccc(F)cc1
 : /	/	/	i	1.08	/	106.5
CC(=O)CCc1c[nH]c2c(C(=O)O)cccc12
 : 61.5	161.3	-2.6	i	0.81	-5.0	125.5
NC(=S)NNC(=O)c1cc(C(F)(F)F)cc(C(F)(F)F)c1
 : /	/	/	i	0.88	/	101.8
O=C(COc1ccc(Br)cc1)N/N=C1/SCC(=O)N1Cc1ccccc1
 : 17.2	186.5	-0.9	i	1	-3.0	105.9
Nc1ncccc1OCc1ccc(Cl)c(Cl)c1
 : /	/	/	i	0.87	/	100.0
CN(C(=O)CSc1nnnn1-c1ccc(O)cc1)C1CCS(=O)(=O)C1 (stereo not given)
 : 16.7	100.0	/	i	0.91	-2.2	105.4
CCOC(=O)N1CCC(Nc2c(NCCN3CCN(c4ccccc4F)CC3)c(=O)c2=O)CC1
 : /	/	-1.8	i	0.95	4.6	99.4
Cc1ccc(O)c(NC(=O)CSc2ccc(Cl)cc2)c1
 : -35.0	88.7	/	i	1.02	3.5	100.1
Cc1cc2cc(C=O)c(Cl)nc2cc1C
 : -3.3	118.5	-3.6	i	0.85	1.0	107.0
CCOc1ccc(-c2c(C#N)c(N)nc3c2c(=O)n(C)c(=O)n3C)cc1OC
 : -306.2	88.1	-2.5	i	0.92	-4.7	96.5
CC1=C(C(=O)Nc2ccccc2F)C(c2cccs2)C2=C(CCCC2=O)N1 (stereo not given)
 : /	/	/	i	0.94	2.6	106.4
O=C1OC(c2ccccc2)=N/C1=C/c1cccc(OC(=O)c2cccs2)c1
 : 33.3	71.0	-1.1	i	0.92	-2.7	/
Cc1ccc(N(C(=O)Cc2cccs2)C2C=CS(=O)(=O)C2)cc1Cl (stereo not given)
 : /	/	/	i	0.95	-5.0	102.2
Cn1cc(Cl)c(C(=O)Nc2cccc(Cl)c2Cl)n1
 : 42.9	88.8	-1.8	i	0.73	-5.9	99.3
O=C(CCCN=C1NS(=O)(=O)c2ccccc21)OCC(=O)N1CCc2ccccc21
 : /	/	-0.4	i	0.94	-3.2	101.2
COc1cccc(NC(=S)NCCCN2CCOCC2)c1
 : -63.3	83.8	0.4	i	0.94	-3.0	101.5
COc1ccccc1-c1cc(C(F)(F)F)nc(N2CCOCC2)n1
 : -40.0	130.4	-1.8	i	0.85	8.9	104.2
CC(=O)c1ccc(NC(=O)CSC(=S)N2CCCC2)cc1
 : /	/	/	i	1.1	-2.8	101.9
CCOC(=O)c1c(C)[nH]c(C)c1C(=O)COc1ncnc2cc([N+](=O)[O-])ccc12
 : 35.7	160.1	/	/	/	-0.1	100.4
Cc1c(C(=O)O)c(=O)n(-c2ccccc2)n1-c1ccccc1
 : 7.1	60.0	/	i	1	-0.7	103.8
COc1ccc(OC)c(/C=N/Nc2cc(C)nc(N3CCOCC3)n2)c1
 : /	/	/	i	0.9	/	106.4
COc1ccc(S(=O)(=O)N(C)CC(=O)NCc2cccnc2)cc1C
 : 5.4	180.3	-1.2	i	0.98	2.5	99.7
Cn1c(N)c(C(=O)COC(=O)c2ccc3c(c2)C(=O)N(c2ccc(Cl)cc2)C3=O)c(=O)n(C)c1=O
 : /	/	/	i	1.05	0.6	99.0
COc1ccc(C(=O)c2coc3ccc(O)c(CN(C)C)c23)cc1
 : /	/	-3.5	i	1.03	-11.2	101.0
Cc1ccc(CN(CC(=O)N/N=C/c2ccco2)S(=O)(=O)c2ccc(C)cc2)cc1
 : -52.5	84.9	0.6	i	0.83	-3.5	98.2
Cc1ccc(Cn2c(NC(=O)c3ccco3)nc3ccccc32)cc1
 : /	/	-1.7	i	1.04	12.4	89.9
COCCn1c(SCc2cccnc2)nnc1-c1c[nH]c2ccccc12
 : /	/	-3.4	i	1.01	-6.5	102.2
CC1CCCN(C(=O)CSc2cnc3ccccc3n2)C1 (stereo not given)
 : 17.2	97.7	-1.8	i	1.11	-9.0	106.7
Cc1nc2cc(F)ccc2n1C1CCN(S(=O)(=O)c2ccccc2)CC1
 : -30.3	88.5	-1.7	i	0.91	-7.0	95.8
COc1ccc(C(=O)Nc2c(C)csc2C(=O)O)cc1
 : -4.8	145.9	/	i	0.96	0.3	89.0
Nc1c(C(=O)c2ccccc2)sc2nsc(SCCN3CCOCC3)c12
 : /	/	/	i	1.15	/	96.4
CCn1cc(C(=O)Nc2ccc3c(c2)OCCO3)c2cc(OC)c(OC)cc2c1=O
 : /	/	-1.5	i	0.85	-7.3	102.9
CC1Cc2ccccc2N1C(=S)Nc1cccc(S(=O)(=O)N(C)C)c1 (stereo not given)
 : /	/	/	i	1.03	-5.5	101.3
CCOc1cc(NC(=S)NCC2CCCO2)c(OCC)cc1NC(=O)c1ccccc1 (stereo not given)
 : 53.9	86.0	-0.6	i	0.84	1.2	66.0
Cc1cccc(-n2nc3c(c2NC(=O)c2ccco2)CSC3)c1C
 : 0.0	136.2	-0.6	i	1	0.8	99.5
O=C(C1=C[C@@H](C2CCCCC2)C[C@@H](OCc2ccc(CO)cc2)O1)N1CCOCC1
 : /	/	/	i	0.93	7.6	96.6
Cc1cc(NC(=S)N(CCCN2CCOCC2)Cc2ccco2)ccc1Cl
 : -12.5	167.9	0.4	i	0.95	7.5	100.9
COc1ccc(Br)cc1CN1CCCC(C(=O)N2CCCCC2)C1 (stereo not given)
 : 8.3	58.6	-2.1	i	1.01	-3.1	106.3
CCC(=O)N1CN(S(=O)(=O)c2ccc(C)cc2)CC1C (stereo not given)
 : 57.1	85.1	-3.2	i	0.96	13.8	109.8
O=C(NCCCn1ccnc1)C(=O)NCC1OCCN1S(=O)(=O)c1ccccc1 (stereo not given)
 : -28.6	76.7	/	i	0.96	6.3	97.1
Cc1ccc(OCC(=O)OCC(=O)c2c(N)n(C)c(=O)n(C)c2=O)cc1C
 : -42.3	85.7	-2.0	i	1	4.0	109.3
Cc1ccc(C(=O)c2cn[nH]c2-c2ccccc2O)cc1
 : 0.0	131.2	-2.4	i	0.93	2.1	102.5
CSc1nc2ccc(NC(=O)c3ccco3)cc2s1
 : /	/	-2.0	i	1.17	3.5	48.2
O=C(O)CCCSCC(=O)Nc1ccccc1
 : -8.3	126.7	-3.5	i	0.96	-6.7	104.4
O=C(CCS(=O)(=O)c1cccc2nonc12)N1CC(=O)N(CCc2ccccc2)C(=O)C1
 : /	/	-1.8	i	0.9	0.2	109.4
CCOC(=O)c1c(C)[nH]c(N=Nc2ccccc2Cl)c1C
 : /	/	/	i	0.76	/	101.3
CCCOC(=O)c1[nH]c2c(c1C)C(=O)CC(c1cc(OC)c(OC)c(OC)c1)C2 (stereo not given)
 : 42.9	160.0	0.9	i	1.11	-2.6	98.7
Cc1ccc(CCNC(=O)C2CCCN2S(=O)(=O)c2ccc3c(c2)CCC(=O)N3)cc1 (stereo not given)
 : /	/	-0.6	i	0.97	-6.5	102.5
COc1cc(C(=O)OC2CCCCC2=O)cc(OC)c1C (stereo not given)
 : /	/	-1.1	i	0.72	6.5	99.1
O=S(=O)(c1cccc2cccnc12)N1CCCc2ccccc21
 : /	/	/	i	1.1	/	110.4
O=C(NCC1CCCO1)C1CC(=O)N(C2CCCC2)C1 (stereo not given)
 : 12.7	107.8	-0.5	i	0.88	2.2	97.1

A few values from the list.
Reading of CCOC(=O)c1c(C)[nH]c(N=Nc2ccccc2Cl)c1C in HSV replic up primary fold: 0.76
Reading of O=S(=O)(c1cccc2cccnc12)N1CCCc2ccccc21 in HSV replic up primary fold: 1.1

Next part
Second line of a record – INS promoter inh	INS promoter inh cell count	GALR2 ag	HSV replic up	HSV replic up primary fold	PKD1 kinase inh	RGS16-Gao HTS
COc1cc(/C=C2/SC(=S)N(CC(=O)Nc3nc4ccccc4s3)C2=O)cc(OC)c1OC
 : 43.3	118.6	-1.5	i	0.96	2.2	101.9
COc1cccc(C(=O)C2CCCN(C(=O)c3cccc(C#CC(C)(C)O)c3)C2)c1 (stereo not given)
 : /	/	/	i	0.94	1.6	102.0
COc1ccc(-c2cc(-c3n[nH]c(=S)n3-c3cc(OC)ccc3OC)[nH]n2)cc1
 : 6.7	77.7	-1.4	i	1.08	1.4	81.1
Cc1ccn2c(Nc3ccccc3)c(-c3ccccn3)nc2c1
 : 25.0	71.3	/	i	0.83	5.5	100.9
CCCCNS(=O)(=O)c1ccc(NS(=O)(=O)c2c(C)cc(C)cc2C)cc1
 : 2.9	104.9	-1.6	i	0.96	-8.7	101.4
FC(F)(F)c1cc(-c2ccco2)nc2ncnn12
 : 8.3	153.6	0.0	i	1.01	3.5	107.9
Cc1cc(NC(=O)Cn2cnc3c(nnn3-c3cccc(F)c3)c2=O)no1
 : /	/	/	i	0.99	-1.3	94.8
CCOC(=O)c1c(NC(=O)CNC2CCCc3ccccc32)sc(C(N)=O)c1C (stereo not given)
 : /	/	/	i	0.88	-5.7	99.6
CC(C)NC(=O)NNC(=O)Cn1nnc(-c2cccc(Cl)c2Cl)n1
 : /	/	/	i	1.04	/	99.8
O=C(NC1(C(F)(F)F)NC(=O)N(CC2CCCCC2)C1=O)c1ccco1 (stereo not given)
 : 28.6	50.4	-0.9	i	0.82	-10.7	106.3
COc1ccc(/C=C/C(=O)NC(=S)Nc2ccc(S(=O)(=O)Nc3nccnc3OC)cc2)cc1
 : /	/	-1.5	i	0.97	-4.8	100.3
CC(=O)Nc1cccc(Oc2cnc3ccccc3n2)c1
 : 32.1	74.4	-4.8	i	0.9	-13.8	104.6
COC(=O)C(NNc1ccccc1C)(NC(=O)c1ccc(F)cc1)C(F)(F)F (stereo not given)
 : -16.7	37.0	-3.9	i	1	-3.7	95.8
NC(=O)c1cc(N=Nc2c(N)[nH]n(-c3c(Cl)cc(Cl)cc3Cl)c2=O)ccc1Cl
 : /	/	/	i	0.96	-3.7	99.0
Cc1ccc(-c2nc3ccccc3nc2NN)cc1
 : /	/	/	i	1	/	100.6
Brc1ccccc1OCCCCCN1CCOCC1
 : /	/	/	i	1	6.9	103.3
O=C(COC(=O)CCCN1C(=O)c2ccccc2C1=O)Nc1ncc(Cl)cc1Cl
 : -9.1	109.9	-1.4	i	0.94	0.4	98.9
CCOC(=O)C1=C(C)NC2=C(C(=O)C(C(=O)OCC)C(c3ccco3)C2)C1c1ccccn1 (stereo not given)
 : 11.8	144.3	0.5	i	0.92	-0.5	100.6
Cc1cccc(C(=O)NNC(=O)c2cc3cc4ccccc4nc3s2)c1
 : 2.0	89.0	1.4	i	0.96	-4.3	99.5

Pulled by structure from the list above (4):
Second line of a record – INS promoter inh	INS promoter inh cell count	GALR2 ag	HSV replic up	HSV replic up primary fold	PKD1 kinase inh	RGS16-Gao HTS
Cc1cccc(C(=O)NNC(=O)c2cc3cc4ccccc4nc3s2)c1
 : 2.0	89.0	1.4	i	0.96	-4.3	99.5
O=C(COC(=O)CCCN1C(=O)c2ccccc2C1=O)Nc1ncc(Cl)cc1Cl
 : -9.1	109.9	-1.4	i	0.94	0.4	98.9
CCOC(=O)C1=C(C)NC2=C(C(=O)C(C(=O)OCC)C(c3ccco3)C2)C1c1ccccn1 (stereo not given)
 : 11.8	144.3	0.5	i	0.92	-0.5	100.6
Brc1ccccc1OCCCCCN1CCOCC1
 : /	/	/	i	1	6.9	103.3

Compounds were not picked by outcome; 1.2% or so of the library scored in one or more.
